PrP UTR inh: suppresses PrP 5' UTR mRNA reporter expression; 340,000 compounds, 0.35% hits; inhibition, % (test concentration not listed); cell-based PrP 5' UTR mRNA reporter, plate reader;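 active = every replicate at 50% or more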;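 also: 0 = median of the neutral control wells; tested in H4 reporter cells; numbers are from one replicate; inactives centre near -14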
Sa RN4220 lethal: kills Staphylococcus aureus RN4220. S. aureus RN4220 growth, OD600, 16 h. inhibition, % (concentration not given with the values). 330,000 compounds, 0.33% hits. AID 1259311;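 active = z-score of -3 or lower and OD600 up to 0.18 on both plates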;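 also: plate controls were untreated cells for no effect and reference antibiotic for full effect; stock transfer was 100 nL into about 80 µL; one replicate is shown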
ugtP null kill: compounds lethal to S. aureus RN4220 ugtP deletion mutant | OD600 growth, 16 h; some inactives read as strong as hits | growth inhibition, % (concentration not given with the values) | 330,000 compounds, 0.54% hits | AID 1259309;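 active = z-score under -3 and OD600 up to 0.15 on both plates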;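 also: plate controls were untreated wells for no effect and antibiotic for full effect; wells of about 80 µL received 100 nL stock; the first replicate is given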
Bead autofluor: compound fluorescence in toxin protease inhibitor counterscreen; 360,000 compounds, 3.1% hits; compound autofluorescence counterscreen, microsphere flow cytometry; stronger effect = higher value; fluorescence intensity (test concentration not listed);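 active = at least 3 SD above the mean of all compounds, about 16000 in these data; inconclusive = too few beads counted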;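 also: 100 nL of 1 mM stock went into each well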
Mtb hypoxia rep: Mtb hypoxia fluorescent reporter inhibition. AID 1159583. fluorescence inhibition, % (no concentration beside the values). 300,000 compounds, 0.1% hits. M. tuberculosis hypoxia-regulated fluorescent reporter, fluorescence;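 active = 35 to 45% if threefold the growth effect, above 45% if 1.5-fold the growth effect; inactive = the rest, general growth blockers included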;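 also: wells of about 50 µL received 100 nL stock; 0% = vehicle wells and 100% = reference inhibitor wells; whole bacteria with a GFP reporter of the hypoxia response; strong numbers were not always called active; many hits fall short of the cut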
BJeLR viability: BJeLR cell viability loss; inhibition, % (concentration not given with the values); 300,000 compounds, 0.17% hits; AID 1554; BJeLR (HRASV12) viability, CellTiter-Glo ATP luminescence, 48 h; reference of the scale not given here;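 active = replicate mean above 50%; inconclusive = above 50% but judged a plate artefact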;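 also: 50 nL library stock added to about 25 µL; numbers are from one replicate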
Mtb hypoxia rep growth: second read-out of Mtb hypoxia rep, no call of its own (marks repeat the call); growth inhibition, %; measured here: M. tuberculosis growth (absorbance);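 0% = vehicle and 100% = reference antibiotic; read after six days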
* hit, by the source's call; ? = inconclusive; . = no result given. No enrichment for hits; any-hit rate near 3.9%.

Molecule,ugtP null kill,BJeLR viability,PrP UTR inh,Mtb hypoxia rep,Bead autofluor,Mtb hypoxia rep growth,Sa RN4220 lethal
CSc1ncccc1C(=O)NC1CCCCCC1,14.4,4.6,-18.9,12.3,4095,9.0,5.0
COc1ccc(-n2nnnc2SCC(=O)Nc2cccc(O)c2)cc1,7.9,-2.2,-12.8,4.6,3728,2.7,4.9
O=c1[nH]c(-c2ccccc2)nc2sc(-c3ccccc3)cc12,3.6,0.5,-174.6,-5.0,4393,-8.6,-14.0
CCC(=O)NN=Cc1ccc(-c2ccc([N+](=O)[O-])cc2)o1,-7.0,.,.,2.7,.,5.9,-0.8
CC1CCN(C(=O)Cn2cc(SCC(=O)NCC3CCCO3)c3ccccc32)CC1 (stereo not given),-63.0,1.4,-8.6,13.0,3177,2.0,4.4
COc1cc(C(C)=NNC(=O)C(O)(c2ccccc2)c2ccccc2)ccc1O,12.3,.,.,7.9,.,6.0,7.3
CCOC(=O)CN(C)Cc1cn(C)nc1-c1ccc(Oc2ccccc2)cc1,11.1,6.9,-23.6,0.8,3094,-6.9,6.1
O=C(N/N=C/c1cc(Br)c(Br)s1)c1ccncc1,.,-2.4,4.9,.,4399,.,.
Cc1cc(NC(=O)CSc2nc(-c3cccs3)cc(C(F)(F)F)n2)no1,31.2,4.0,-13.9,3.9,6917,2.7,6.2
C/C(=N\Nc1ccc(F)cc1F)c1ccccc1O,.,0.3,-24.3,.,4112,.,.
O=C(NCc1ccc(F)cc1)C(c1ccccc1)N(C(=O)c1csnn1)c1ccccc1 (stereo not given),-4.2,-10.2,-13.7,7.8,4406,0.6,-0.8
COc1ccc(CC(=O)Nc2ccc3c(c2)OCO3)cc1S(=O)(=O)N1CCOCC1,9.5,-4.6,-3.3,.,4993,.,-2.6
N#CCCN1CCN(Cc2cc(-c3ccccc3)ccc2O)CC1,-0.8,-14.4,-21.7,1.4,7069,4.5,0.6
C[C@@H](C(=O)NCc1ccco1)N1C(=O)N2CCc3c([nH]c4ccccc34)[C@@]2(C)C1=O,13.2,-2.0,-39.6,.,6197,.,6.3
CCOC(=O)c1c(C)c(C(=O)N2CCc3ccccc3C2)c(C)n1CC,9.3,-4.8,-17.2,9.7,9850,1.9,5.2
O=C(CS(=O)(=O)c1ccccc1)N1CCCCCC1,1.5,-2.6,-53.6,.,4796,.,0.8
CC(C)(C)OC(=O)NC(CCCCNC=O)C(=O)O (stereo not given),-4.3,-3.9,-11.7,9.8,23419*,9.0,5.2
CC1CC(C)CN(c2oc(-c3ccccc3Cl)nc2C#N)C1 (stereo not given),8.9,-11.1,-78.1,10.5,4357,5.1,4.8
Cc1ccccc1OCC(=O)O/N=C(\N)Cc1cccs1,7.2,-1.8,-18.5,0.9,8035,5.5,3.5
Cc1ccnc(NCc2ccccc2O)c1,.,-5.6,-18.4,.,3826,.,.
COc1cc(SC)ccc1C(=O)OCC(=O)NCCC1=CCCCC1,-8.8,12.7,0.9,2.7,4838,3.9,-0.6
COc1ccccc1CNC(=O)C1CCC(=O)N1C(C)C (stereo not given),10.2,-4.5,-31.3,0.7,3705,10.4,2.6
CCN(CC)C(=O)[C@H]1C[C@H](CC(=O)NCCCn2ccnc2)C(=O)N2CCc3c([nH]c4ccc(Cl)cc34)[C@]12C,1.8,.,-145.6,-3.1,3506,5.2,-4.0
COc1ccc(OC)c(C2SCCN2S(C)(=O)=O)c1 (stereo not given),-4.6,-4.9,-19.7,4.9,22914*,-1.4,1.0
CCCOc1cccc(C(=O)Nc2nnn(CCC)n2)c1,-5.5,3.3,-58.4,.,3023,.,5.7
COc1cccc(NC(=O)Nc2ccc(Br)cn2)c1,5.6,-1.1,-54.1,5.4,4317,3.9,-1.8
CCn1c(SCC(=O)N2CCCCC2C)nnc1-c1ccc(S(=O)(=O)N2CCN(C)CC2)cc1 (stereo not given),7.8,-8.0,-12.5,4.6,?,-0.3,3.7
O=C(CCN1C(=O)S/C(=C\c2ccccc2)C1=O)NCCCn1ccnc1,1.3,1.4,-7.3,8.5,5664,7.6,0.9
COc1cc(C2=Nc3c(c(C)nn3-c3ccccc3)P(=O)(N3CCOCC3)O2)cc(OC)c1OC (stereo not given),5.3,7.8,-12.5,3.7,5918,7.0,4.2
COc1ccc(S(=O)(=O)N(C)CC(=O)NCCCN2CCOCC2)cc1Cl,0.5,-2.8,-3.3,0.5,3896,0.1,1.1
CCNc1ccc(C(=O)OC(C(=O)NC(N)=O)C(C)C)cc1[N+](=O)[O-] (stereo not given),0.5,-0.4,-10.4,-13.4,3994,4.6,2.4
Cc1nc(NC(=O)/C=C/c2ccccc2)sc1C(=O)NCCO,-1.9,9.8,-24.2,11.0,4717,4.6,2.9
CC(=O)NC(CCS(C)(=O)=O)C(=O)Nc1cccc(C)c1 (stereo not given),4.5,7.0,-14.3,5.1,4173,2.2,6.4
O=C1c2ccc([N+](=O)[O-])cc2NC(c2ccco2)N1N=Cc1ccco1 (stereo not given),5.2,.,.,4.8,.,14.0,6.8
c1coc(C2=Nc3cccc4cccc(c34)N2)c1,-8.9,3.3,-16.3,12.2,2119,1.3,-3.9
Cc1cccc(OCC(=O)N/N=C/c2cn[nH]c2-c2ccc(Cl)c(Cl)c2)c1,.,3.3,8.3,.,4555,.,.
O=C(NNC(=O)NC1CCCCC1)NC1CCCCC1,3.9,-2.5,-22.6,-6.6,4383,-1.0,0.2
COc1nc(N(C)C)nc(N(C#N)CCOC(C)=O)n1,10.9,0.9,0.6,3.7,.,14.0,2.4
Cc1ccc(N(CC(N)=O)C2SC(=O)NC2=O)cc1 (stereo not given),16.2,-1.2,-20.1,9.0,2275,11.9,2.5
CCOc1cc(N2CCOCC2)c(OCC)cc1NC(=O)c1cccc(S(=O)(=O)N2CCOCC2)c1,0.7,.,-8.3,6.1,3915,5.2,1.9

The closing 3 records of the part above lead into the next.
Molecule,ugtP null kill,BJeLR viability,PrP UTR inh,Mtb hypoxia rep,Bead autofluor,Mtb hypoxia rep growth,Sa RN4220 lethal
COc1nc(N(C)C)nc(N(C#N)CCOC(C)=O)n1,10.9,0.9,0.6,3.7,.,14.0,2.4
Cc1ccc(N(CC(N)=O)C2SC(=O)NC2=O)cc1 (stereo not given),16.2,-1.2,-20.1,9.0,2275,11.9,2.5
CCOc1cc(N2CCOCC2)c(OCC)cc1NC(=O)c1cccc(S(=O)(=O)N2CCOCC2)c1,0.7,.,-8.3,6.1,3915,5.2,1.9
CN1CCN(CCc2cn3ncc(C#N)c3nc2-c2ccc(F)cc2)CC1,0.9,-4.4,8.8,-7.3,3348,10.3,-2.0
CC1CCN(S(=O)(=O)c2nnc(NC(=O)c3cccc([N+](=O)[O-])c3)s2)CC1,.,2.6,-1.3,.,5569,.,.
O=C(CCS(=O)(=O)c1ccccc1)Nc1nc2cc3c(cc2s1)OCCO3,8.5,-6.7,-10.2,14.9,5890,2.9,10.0
COCCOC(=O)c1c(NC(=O)CN2CCc3ccccc32)sc(C(N)=O)c1C,-0.2,6.1,-20.2,7.3,4972,12.6,2.1
CC(=O)c1ccc(S(=O)(=O)Nc2cccc(-c3ccc(N4CCOCC4)nn3)c2)cc1,11.4,-3.6,-32.5,-8.4,3984,-8.9,6.3
CCOc1c2ccc(C(=O)NCCCCc3ccccc3)cc2nn1CC,5.1,-3.4,-14.6,14.9,3252,5.9,-1.0
COc1ccc(-c2ccc(=O)n(Cc3ccc([N+](=O)[O-])cc3)n2)cc1,-8.2,17.7,-14.2,-2.4,4770,-0.7,3.3
C/C(=N/OC(=O)N(C)C)c1ncc(C(F)(F)F)cc1N1CCOCC1,.,-3.3,-20.5,.,2770,.,.
CCOc1ccccc1N(CC(=O)N/N=C/c1cc(Br)ccc1OC)S(C)(=O)=O,.,-2.4,-28.0,.,2320,.,.
COc1ccc(NC(=O)N[C@@H](Cc2ccccc2)C(=O)NN)cc1,1.0,-4.4,-4.4,-12.9,3338,-2.2,5.4
O=C(Cn1nnc(-c2ccc(Cl)cc2)n1)NCC1CCCCC1,-6.7,-2.3,-19.0,6.9,8153,3.8,-4.4
CCOC(=O)C(CC)n1nc(C)n2c(cc3sccc32)c1=O (stereo not given),-10.4,4.8,-64.7,4.3,4392,16.9,-0.7
CC(=O)c1ccc(OCc2ccc(C(=O)c3ccccc3)cc2)cc1,9.0,-7.8,-12.5,9.7,4108,2.5,10.6
CCOC(=O)C1CCCN(Cc2c(F)cccc2Cl)C1 (stereo not given),-0.3,-10.2,-48.6,-4.2,20111*,-6.7,-0.2
COC1CCN(C(=O)c2ccc(OC3CCN(CCc4ccccc4)CC3)cc2)CC1,4.2,-5.8,-7.7,5.7,3550,5.1,2.6
COC(=O)CCC(=O)N1CCCC(C(=O)c2cc(F)ccc2F)C1 (stereo not given),7.5,-14.5,-13.4,0.1,3987,-5.5,3.4
CC(C)CCN(C(=S)Nc1cccc(F)c1)C(C)c1cccs1 (stereo not given),-4.5,-3.6,-7.3,7.9,4747,8.0,2.2
CN(C)S(=O)(=O)N1CCN(CC(=O)Nc2ccc(F)cc2)CC1,7.2,-14.9,-3.5,7.2,4306,9.0,4.7
Cc1ccc(-c2nnc(-c3ccccc3)c(N3CCOCC3)n2)cc1,-9.0,7.4,-9.8,2.7,5724,12.8,-0.8
Cc1ccc(S(=O)(=O)NCCC(=O)N2CCCCCCC2)cc1,0.0,1.2,0.7,-4.3,5203,-2.0,0.5
COc1ccc(CO/N=C/c2c(C)[nH]c(=O)[nH]c2=O)cc1,.,1.6,-14.7,.,3216,.,.
COc1cccc(CN(Cc2ccco2)C(c2ccc(F)cc2)c2nnnn2C(C)(C)C)c1 (stereo not given),24.5,-4.4,-23.4,12.8,3020,9.4,-1.9
O=c1c2ccccc2nc2n1C(CSCc1cccc(C(F)(F)F)c1)CS2 (stereo not given),8.8,9.3,-24.4,.,3635,.,22.3
COc1ccc(-n2c(CN3CCC(C)CC3)nc3ccc([N+](=O)[O-])cc3c2=O)c(OC)c1,3.0,-3.2,-11.3,6.3,4712,2.6,3.2
O=C(Nc1ccc(N2CCCCCC2)cc1)c1ccc[nH]1,-4.6,.,-67.0,4.7,5108,-2.6,3.4
CCOC(=O)C(NCCCO)c1ccccc1 (stereo not given),0.1,-5.8,-24.8,1.1,12970,-5.8,-6.1
COC(=O)c1ccc2c(=O)n(CCN3CCOCC3)c(SCC(=O)Nc3ccccc3Cl)nc2c1,-1.3,7.5,-11.1,1.1,5059,-8.9,0.8
Cc1nc2ccccc2c(=O)n1N=Cc1cc(Br)ccc1O,1.1,.,.,-4.0,.,-2.0,7.4

Bioassay records (PubChem BioAssay)
